Screening data from PubChem.
LANA-H2A inh: blockers of LANA interaction with H2A/H2B – biochemical, FP readout, HTS, primary screen. 0.6% of 320,000 active. inhibition, % (concentration not given with the values). cell-free LANA-H2A/H2B peptide, fluorescence polarization; in the data active means inhibition mostly above about 10%, no sharp cut-off; inactive means mostly below about 6.7%;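 further: stock transfer was 7.5 nL into about 10 µL; 0% = median of vehicle wells and 100% = median of positive control wells; one replicate is shown; the record names a cut of 25% in any replicate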
Target sequence (Q9QR71 whole entry, looked up): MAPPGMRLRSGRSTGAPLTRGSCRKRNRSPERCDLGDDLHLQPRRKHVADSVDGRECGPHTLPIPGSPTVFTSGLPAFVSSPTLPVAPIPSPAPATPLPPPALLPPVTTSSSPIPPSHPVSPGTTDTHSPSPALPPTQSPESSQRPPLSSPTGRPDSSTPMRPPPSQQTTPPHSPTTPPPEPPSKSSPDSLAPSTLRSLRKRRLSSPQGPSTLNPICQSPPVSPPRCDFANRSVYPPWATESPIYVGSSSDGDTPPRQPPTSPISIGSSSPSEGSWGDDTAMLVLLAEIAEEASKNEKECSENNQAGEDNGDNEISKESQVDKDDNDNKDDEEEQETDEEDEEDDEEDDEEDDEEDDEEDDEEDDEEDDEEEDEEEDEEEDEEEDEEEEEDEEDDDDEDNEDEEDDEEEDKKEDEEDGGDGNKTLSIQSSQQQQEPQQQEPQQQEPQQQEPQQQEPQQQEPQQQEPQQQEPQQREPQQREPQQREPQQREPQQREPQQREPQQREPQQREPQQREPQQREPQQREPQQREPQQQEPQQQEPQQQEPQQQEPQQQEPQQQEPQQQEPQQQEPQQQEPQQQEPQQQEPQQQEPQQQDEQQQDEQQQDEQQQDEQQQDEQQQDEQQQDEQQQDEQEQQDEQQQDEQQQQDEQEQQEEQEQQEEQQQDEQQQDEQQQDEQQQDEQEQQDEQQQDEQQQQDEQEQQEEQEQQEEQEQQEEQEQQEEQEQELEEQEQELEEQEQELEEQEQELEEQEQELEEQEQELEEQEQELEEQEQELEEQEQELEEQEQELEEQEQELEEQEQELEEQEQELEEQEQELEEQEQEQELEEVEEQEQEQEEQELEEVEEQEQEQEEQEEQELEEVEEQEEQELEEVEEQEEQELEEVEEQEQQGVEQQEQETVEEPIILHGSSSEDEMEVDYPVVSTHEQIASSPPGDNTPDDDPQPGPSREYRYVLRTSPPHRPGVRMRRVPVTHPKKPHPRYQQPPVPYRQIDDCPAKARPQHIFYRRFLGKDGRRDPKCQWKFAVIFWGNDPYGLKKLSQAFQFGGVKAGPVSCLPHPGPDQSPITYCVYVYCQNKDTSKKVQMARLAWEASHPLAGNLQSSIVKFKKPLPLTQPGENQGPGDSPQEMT
Ecoli growth: E. coli growth inhibition, primary screen, OD600 | Escherichia coli growth, 23 h; active compounds read low | 0.21% of 330,000 active | AID 1053175, 2014 | OD600 absorbance (test concentration not listed);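 active means OD600 absorbance below the run mean of sample wells minus 3.6 SD, in any replicate, cut at about 0.56 in these data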;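 further: stock transfer was 300 nL into about 60 µL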
B2AR ag: beta2AR agonists driving receptor internalization, primary screen, cell-based, FAP fluorogen, flow cytometry. response, % (no concentration beside the values). AID 504454, 2011. 0.43% of 340,000 active. Am2.2-beta2AR cells; reference of the scale not given here. Beta-2 adrenergic receptor (Homo sapiens), P07550;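 active means response above a set limit, near 3 SD of response in nonfluorescent compounds, cut at about 42% in these data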;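 further: stock transfer was 100 nL into about 11 µL; a reference agonist was the positive control; negative values mostly stem from fluorescent compounds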
A1 inh: caspase 3/7 activation in MEF A1-2A-BIM cells, primary screen, A1 inhibitor project, cell-based, luminescence, HTS; caspase activation, % (no concentration beside the values); Caspase-Glo 3/7 luminescence, 3 h; percent of clofoctol response, vehicle zero; 0.066% of 330,000 active;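 active means over half of replicate activation scores above 10%, or exactly half above 10 with the replicate mean above 10; inconclusive means replicate mean below 10 yet half the replicates above 10; inactive means over half of replicates below 10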;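 further: wells of about 30 µL received 50 nL stock; many hits fall short of the cut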
HNF4A DNA FP: change in binding of human HNF4A to DNA, primary screen, biochemical, fluorescence polarization, FITC-DNA; Hepatocyte nuclear factor 4-alpha (Homo sapiens), P41235; activity change, % at 10 µM; 1 h; 0.3% of 360,000 active; in the data active means activity change above about 30%, passing the limit was not always enough;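 further: controls were the assay level and a saturating level of protein; the project sought stronger binding though the title names inhibitors; some compounds called inactive have numbers as strong as hits; positive values seem to mean higher polarization but the record does not say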
Vif TR-FRET: inhibitors of Vif binding to APOBEC3G peptide, primary screen, biochemical, TR-FRET, GST-Vif 1-94, biotin-A3G peptide, dose response retest (AID 1117319) | Virion infectivity factor (Human immunodeficiency virus type 1 group M subtype B (isolate … | 0.57% of 260,000 active | TR-FRET GST-Vif / biotin-A3G peptide binding; higher % means a stronger effect; test concentration not given here; strong numbers were not always called active | inhibition, %; hits with a dose series show IC50 in µM;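 active means above the screen mean plus three standard deviations and confirmed in dose response; inconclusive means results disagree or hit not tested in dose response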;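 further: Vif residues 1-94 fused to GST binding biotinylated APOBEC3G peptide 110-148; 0% = full assay without inhibitor and 100% = GST in place of GST-Vif; retest series ran down from 100 µM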
UCH37 inh: inhibitors of human UCH37 deubiquitinase, primary screen, biochemical, Ub-AMC cleavage, fluorescence | purified proteasome/UCH37 | inhibition, % (concentration not given with the values) | 0.33% of 330,000 active | AID 588478, 2011;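 active means mean of two replicates above 20%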;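 further: 0% = compound-free wells with enzyme and 100% = wells lacking proteasome; stock transfer was 100 nL into about 20 µL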
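system = Proteasome-associated human UCH37 deubiquitinase | amount = 0.15 nM proteasome as dispensed | medium = pH 7.4 Tris-HCl (50 mM) with ovalbumin, ATP-MgCl2, DTT | incubation = 30 min preincubation with enzyme, 25 min cleavage at room temperature | detection = AMC fluorescence 355/460 nm | read-out basis = percent inhibition | controls = no-proteasome and no-compound wells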
An asterisk follows results filed as active; u = inconclusive; x = not tested or not shown.

The line under a structure holds: LANA-H2A inh, Ecoli growth, B2AR ag, A1 inh, HNF4A DNA FP, Vif TR-FRET, UCH37 inh
#1 O=C(Nc1ccccc1)C1Cc2ccccc2CN1C(=O)c1ccco1 (stereo unspecified)
  4.6, 0.74, 1, -0.4, -5.0, 8%, 1.0
#2 Cc1cc(NC(=O)c2cc(-c3ccccc3)on2)no1
  3.2, 0.74, -6, -0.3, 7.3, -2%, 4.1
#3 O=C(Nc1nnc(-c2ccccc2)o1)c1cccc(N2C(=O)CCC2=O)c1
  -0.6, x, 4, 0.0, 0.1, -3%, x
#4 COc1cc(C(=O)NNC(=S)NC(=O)c2ccc(Cl)cc2)cc(OC)c1OC
  0.9, 0.73, 0, 0.0, 1.1, 20%, 5.3
#5 CSc1ncccc1C(=O)Nc1nc2ccc(F)cc2s1
  -4.1, 0.73, 1, -2.9, -0.1, -20%, 3.4
#6 CC(=O)Nc1ccc(NC(=O)CCC(=O)OCC(=O)c2ccc(C)c([N+](=O)[O-])c2)cc1
  6.9, 0.72, 4, -0.8, -0.5, -9%, -0.6
#7 CCn1c(=S)sc2c(=O)n(CC(=O)NCCCc3ccccc3)c(C)nc21
  3.0, 0.66, -2, 1.7, -4.0, x, 6.0
#8 CCC(C)OC(=O)C1=C(C)O[C@]23OC(N)=C(C#N)[C@]12C(=O)c1ccccc13 (stereo partly specified)
  0.0, 0.72, 4, -0.7, -2.6, u, 2.4
#9 CC(C)CCNC(=O)C1CCCN(S(=O)(=O)c2ccc(F)cc2)C1 (stereo unspecified)
  -13, 0.74, 4, 0.4, -1.3, 20%, -4.3
#10 CC(=O)c1ccc(NC(=S)NCCCN2CCOCC2)cc1
  -1.3, 0.7, 3, -0.7, -3.1, -6%, 3.0
#11 Cc1ccc2oc(C(=O)N(CCO)Cc3ccccc3)c(C)c2c1
  3.2, 0.69, 0, 1.1, -2.5, x, 3.6
#12 Cc1cc(C(=O)CSc2nn3c(=O)c(C(C)(C)C)nnc3s2)c(C)n1-c1ccc(F)cc1
  -1.1, 0.72, 2, -0.1, 3.0, u, 5.3
#13 Cc1nn2c(N3CCCC3)c3c(nc2c1-c1ccccc1)CCC3
  -2.4, 0.72, -12, 1.2, -3.2, x, -7.8
#14 O=C(Nc1ccc(N2CCN(c3ccc(C(F)(F)F)cn3)CC2)nc1)c1cccs1
  -5.4, 0.65, -10, 0.1, -1.1, -1%, 1.9
#15 CCn1ncc([N+](=O)[O-])c1C(=O)n1nc(C)cc1C
  6.2, 0.66, -9, 0.7, 0.0, -2%, 0.2
#16 COc1ccc(C2C(C(=O)c3sc(C)nc3C)=C(O)C(=O)N2CCCn2ccnc2)cc1OC (stereo unspecified)
  -4.5, 0.67, -2, 0.2, 3.0, u, 12
#17 CCN(CC)c1c([N+](=O)[O-])c(=O)n(C)c2ccccc12
  4.0, 0.65, -7, 0.1, 3.5, 1%, 3.0
#18 O=C1CC(=C2c3ccccc3-c3ccccc32)C(=O)N1CCCCN1CCN(c2ccccc2)CC1
  -3.1, 0.77, -6, 0.5, 3.6, 27%, 7.7
#19 CCOC(=O)N1CCN(C(=O)C(CC(C)C)NC(=O)C2CCCCC2)CC1 (stereo unspecified)
  2.1, 0.7, 3, 0.3, -0.4, 0%, 2.0
#20 O=c1[nH]c2ccccc2n1Cc1ccccc1
  1.8, 0.64, 2, -0.1, 0.2, 0%, 3.2
#21 CC(NC(=O)Cc1ccc(-c2ccccc2)cc1)c1ccccc1 (stereo unspecified)
  3.0, 0.76, -10, -0.8, -2.9, 8%, 1.2
#22 CCCNc1c(NS(=O)(=O)c2c(F)c(F)c(F)c(F)c2F)c(=O)oc2ccccc12
  -3.3, 0.73, 1, 0.2, -1.5, -9%, 2.4
#23 CS(=O)(=O)c1ccc(Cl)c(C(=O)NC2CCSc3ccccc32)c1 (stereo unspecified)
  -6.2, 0.68, -1, 0.7, -0.9, 12%, 1.3
#24 COc1cc(CCC(=O)NCC2CCCO2)cc(OC)c1OC (stereo unspecified)
  -1.0, 0.68, -2, 0.6, -1.0, 5%, -0.6
#25 O=C(Nc1ccccc1)C12CC3CC(C1)CC(n1cnc([N+](=O)[O-])n1)(C3)C2
  0.4, 0.67, 1, 1.1, -0.7, -7%, -0.2
#26 COc1ccccc1CCNC(=O)C(=O)NCC1OCCN1S(=O)(=O)c1ccc2c(c1)OCCO2 (stereo unspecified)
  0.3, 0.71, 1, 1.9, 1.8, x, -0.6
#27 COc1ccc(C2c3c(oc4ccccc4c3=O)C(=O)N2CCN2CCOCC2)cc1OC (stereo unspecified)
  -2.5, 0.69, -10, 0.4, 2.0, x, 3.6
#28 Cc1ccc(C(=O)c2sc3nsc(C)c3c2N)cc1
  6.6, 0.8, -4, -5.1, 1.9, -2%, -2.3
#29 COc1ccc(-n2nc(C(=O)NCC(=O)NCCC3=CCCCC3)c3ccccc3c2=O)cc1
  -0.9, 0.71, -6, 0.0, 4.5, x, -2.1
#30 Cc1cccc(NS(=O)(=O)c2cc(C(=O)OC(C)C(=O)NCc3ccc4c(c3)OCO4)ccc2C)c1 (stereo unspecified)
  -2.2, 0.71, 3, 0.2, 3.5, 11%, -0.2
#31 C=CCNc1cc(=O)n(Cc2ccccc2)c(=O)[nH]1
  -4.6, 0.69, -3, 0.4, -0.4, x, -2.2
#32 Cc1cc(C)n(CCc2nc3c4ccccc4n(CC#N)c(=O)n3n2)n1
  -5.0, 0.69, -15, -0.4, 1.7, -1%, 1.0
#33 CC(=O)NN1C(=O)c2ccc(Oc3cccc([N+](=O)[O-])c3)cc2C1=O
  -0.2, 0.71, 5, 0.1, 0.6, 4%, 4.4
#34 COc1cc(SC)ccc1C(=O)NCc1ccc(C)cc1
  -87, 0.71, -4, -0.2, 3.8, 21%, 0.0
#35 COc1cc([C@H]2[C@@H]3CCCC[C@]3(O)CCN2Cc2ccccc2F)ccc1O
  1.7, 0.72, 0, 0.3, 0.0, 5%, 1.3
#36 Cc1[nH]c2ccccc2c1NC(=O)CN1CCN(C(=O)c2ccco2)CC1
  4.0, 0.7, -6, 0.5, -4.4, x, -1.1
#37 NCCNC(=O)Cn1c(=O)c2c3c(sc2n(Cc2ccccc2)c1=O)CCCC3
  1.2, 0.65, 7, -0.1, 3.6, -6%, -0.3
#38 COc1ccc(Cn2c(O)c(C=Nc3ccc(O)cc3)c3ccccc3c2=O)cc1
  0.0, 0.73, 0, 0.6, 16, 0%, -7.2
#39 Cc1ccc(CCC(=O)Nc2ccc([N+](=O)[O-])cc2)o1
  0.6, 0.68, -9, 0.0, -2.4, 1%, 1.7
#40 CC1Cc2ccccc2N1C(=O)CNCCCN(C)C (stereo unspecified)
  2.8, 0.68, 2, -0.1, -2.7, 0%, -0.2
#41 CCC1CN(C(=O)NCc2ccccc2)c2ccccc2O1 (stereo unspecified)
  1.6, 0.66, 6, -0.5, 3.7, -9%, 2.3
#42 COc1cccc(Nc2ncccc2C(=O)Nc2ccccc2)c1
  0.5, 0.67, -8, 1.4, 2.3, -2%, 3.4
#43 Cc1occc1C(=O)N/N=C/C=C/c1ccccc1
  -2.5, x, 3, 0.1, 1.8, 0%, x
#44 COc1cc(-c2nn3c(-c4ccccc4)nnc3s2)cc(OC)c1OC
  -2.0, 0.68, 5, 0.0, -1.4, 3%, -3.7
#45 CCS(=O)(=O)c1nc(S(=O)(=O)c2ccc(Cl)cc2)c(NCCCN2CCOCC2)s1
  -0.7, 0.69, -12, 0.6, 3.7, x, 6.6
#46 S=c1nc[nH]c2c1sc1nc(-c3ccccc3)c3c(c12)CCCC3
  2.9, 0.68, -7, 1.0, 2.5, x, 2.8
#47 CCOCc1nnc(NC(=O)c2ccc3c(c2)OCO3)s1
  4.9, 0.69, -1, -2.8, 3.6, 1%, 1.4
#48 COc1ccc(NC(=O)CCS(=O)(=O)c2cccc3nonc23)c(OC)c1
  -6.9, 0.71, 3, 0.4, -3.9, -1%, 1.3
#49 CCOC(=O)CNC(=O)COc1coc(CN2CCN(c3ccccc3)CC2)cc1=O
  -5.6, 0.64, 1, -0.6, -1.9, x, 0.5
#50 O=C(CSc1nnc(NC(=O)C2CC2)s1)NCc1ccccc1
  4.1, 0.7, 2, 0.0, 0.3, x, -0.8
#51 COc1cc(CN2CCN(CCCc3ccccc3)CC2CCO)cc(OC)c1 (stereo unspecified)
  -2.7, 0.67, 7, 0.9, -0.4, x, 3.1
#52 CC1(C)CC(=O)c2c(O)c(-c3ccccc3)c(=O)n(-c3ccccc3)c2C1
  0.8, 0.7, -22, -0.4, 1.3, 0%, -1.3
#53 O=C(CC1CCCCC1)Nc1ccc(-c2ccc3nncn3n2)cc1
  2.4, 0.69, 4, -1.3, 1.0, -6%, -73
#54 O=C(Nc1ccnn1C1CCN(C(=O)c2ccc(F)cc2)CC1)C1CCOC1 (stereo unspecified)
  -1.0, 0.7, 0, 1.0, 6.3, u, -2.1
#55 CC(C)COc1ccc(C(=O)Nc2ccc(NC(=O)c3ccco3)c(Cl)c2)cc1
  -1.2, 0.75, -7, 0.5, 0.8, -2%, -22
#56 CSc1sc(C(=O)NCC2CC2)c(-c2cccs2)c1C#N
  -1.0, 0.65, -6, 0.7, -1.2, -7%, 1.5
#57 COc1ccc2c(C)c(C(=O)O)oc2c1
  0.9, 0.67, 1, -0.1, -0.1, -11%, -41
#58 CC(C)Oc1cccc(C(=O)C2CCCN(Cc3cnc(N4CCCC4)s3)C2)c1 (stereo unspecified)
  -0.7, 0.66, -14, 1.0, -6.8, x, 5.2
#59 Nn1c(SCc2ccccn2)nncc1=O
  -4.3, 0.69, 3, -0.2, -1.7, -10%, 1.8
#60 O=S1(=O)CC2NC(=S)N(c3cccc(Br)c3)C2C1 (stereo unspecified)
  -3.3, 0.67, -6, 1.1, -1.0, 0%, 1.9

Carrying on.
The line under a structure holds: LANA-H2A inh, Ecoli growth, B2AR ag, A1 inh, HNF4A DNA FP, Vif TR-FRET, UCH37 inh
#61 COc1ccc(CCNC(=O)c2c(C)nc3ccccn23)cc1OC
  1.9, 0.67, 5, -0.5, -2.0, x, 0.2
#62 CC(=O)c1cc(CCC(=O)NC2CCCCCC2)oc1C
  2.9, 0.65, 4, -0.2, 0.1, x, 0.8
#63 COc1ccc(N2C(N)=NC(N)=NC2(C)C)cc1
  -0.2, x, -2, -1.0, -0.6, -11%, x
#64 Cc1[nH]c2ccc(C(=O)OC(C)C(=O)NCc3ccccc3)cc2c1C (stereo unspecified)
  -8.6, 0.66, -2, 0.3, 0.4, -5%, -1.4
#65 COC(=O)c1c(C)oc(C)c(C(=O)OC)c1=O
  1.8, 0.71, -4, 0.5, 0.2, 0%, 2.1
#66 COc1cc2c(cc1NC(=O)CSc1nccn1C)oc1ccccc12
  -2.0, 0.69, 9, 0.9, 2.3, 4%, 4.6
